D2 potentiator – Beta-Arrestin HTS for Positive Allosteric Modulators of the Human D2 Dopamine Receptor: Potentiators; D(2) dopamine receptor (Homo sapiens), P14416; 0.23% of 360,000 active; AID 624464, 2012; potentiation, % (no concentration beside the values); DiscoveRx D2 beta-arrestin cells, luminescence, 90 min; 100% = 57 uM dopamine signal; active = potentiation of 50% or more; inconclusive = 30% to 50%; inactive = 30% or less;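 further: compound concentration not given in the record; tested on top of an EC20 dose of dopamine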
Target sequence (P14416 whole entry, looked up): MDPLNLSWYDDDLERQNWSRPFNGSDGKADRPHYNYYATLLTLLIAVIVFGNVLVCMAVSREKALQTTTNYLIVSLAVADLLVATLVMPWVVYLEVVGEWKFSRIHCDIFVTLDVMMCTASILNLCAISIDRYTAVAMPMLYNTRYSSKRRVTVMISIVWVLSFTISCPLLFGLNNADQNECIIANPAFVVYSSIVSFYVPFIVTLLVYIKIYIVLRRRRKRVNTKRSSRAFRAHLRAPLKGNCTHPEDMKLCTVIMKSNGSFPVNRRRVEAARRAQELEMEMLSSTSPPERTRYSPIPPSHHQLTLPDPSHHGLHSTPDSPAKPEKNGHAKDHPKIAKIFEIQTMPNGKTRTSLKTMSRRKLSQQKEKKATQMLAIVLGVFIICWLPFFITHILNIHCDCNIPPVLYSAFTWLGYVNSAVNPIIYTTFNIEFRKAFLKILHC
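D2 cells co-treated with compound plus 50 nM dopamine (EC20) for 90 min at 37 deg C to detect potentiation. Beta-arrestin recruitment was read as enzyme-fragment luminescence after 1 h at ambient temperature. Full response was set by 57 uM dopamine.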
D2 ag – Beta-Arrestin HTS for Positive Allosteric Modulators of the Human D2 Dopamine Receptor: Agonists; D(2) dopamine receptor (Homo sapiens), P14416; DiscoveRx PathHunter D2 beta-arrestin, luminescence, 90 min; 100% = 57 uM dopamine signal; activation, % (no concentration beside the values); 0.084% of 360,000 active; AID 624465, 2012; in the data active = activation above about 40%; inconclusive = about 15% to 40%; inactive = below about 15%; further: compound concentration not given in the record; the text of the record calls up to 30% inactive
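DiscoveRx PathHunter D2 beta-arrestin cells (2,100/well) attached overnight, then compound-stimulated 90 min at 37 C in HBSS/10 mM HEPES/0.1% Tween-20 buffer; beta-galactosidase complementation read by luminescence after 1 h at ambient temperature. Dopamine 57 uM final (EC100) as control.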
Six1-Eya2 inh – qHTS Assay for Inhibitors of the Six1/Eya2 Interaction; Homeobox protein SIX1 (Homo sapiens) + Protein phosphatase EYA2 (Homo sapiens), …; AlphaScreen GST-Six1/His-Eya2 binding, biochemical; stronger effect = lower value; control for the full effect not named in the record; activity change, % (no concentration beside the values); 0.56% of 360,000 active; AID 651725, 2012; in the data active = activity change below about -65%; inconclusive = about -30% to -65%; inactive = above about -30%; further: on the % scale 0 is the no-effect control and ±100 the full control effect; compound concentration not given in the record
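Homogeneous AlphaScreen proximity assay pairing GST-Six1 with His-tagged Eya2 (added as 5X mix: 250 nM and 500 nM) in 50 mM Tris pH 8.0, 300 mM NaCl, 1 mM TCEP. Glutathione donor and nickel acceptor beads; 1 h, 37 °C, dark.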
PINK1 modulator – A Quantitative High throughput Screen to Identify Chemical Modulators of PINK1 Expression; AID 624263, 2012; PINK1 immunofluorescence, high-content cytometry, 24 h; Potency, µM (series often up to 76.6 µM), for the others: at the top dose activation (PINK1 increase), most hits filed as activators; 0.2% of 410,000 active; active = well fitted activation curve with a large enough effect; inconclusive = small, poorly fitted or top-dose-only effect; inactive = flat fitted curve, though single readings scatter; cell line not stated here;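 further: potency means the concentration at half of the fitted maximal effect; % of control where 0% means no effect; nearly all actives have a fitted effect of over 65% in size; a mitochondrial uncoupler was the plate control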
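Readout is PINK1 immunofluorescence, quantified alongside mitochondrial, cell and nuclear markers by laser-scanning microplate cytometry. Cells from a stable line were exposed to compound titrations (5 concentrations) for 24 hours, with CCCP controls.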
CtBP-E1A blk – qHTS Assay for Inhibitors of the CtBP/E1A Interaction; AID 651724, 2012; AlphaScreen GST-E1A/His-CtBP binding, 1536-well; stronger effect = lower value; control for the full effect not named in the record; CtBP / adenovirus E1A interaction (AlphaScreen); activity change, % (test concentration not listed); 0.49% of 340,000 active; in the data active means activity change below about -65%; inconclusive means about -30% to -65%; inactive means above about -30%; further: on the % scale 0 is the no-effect control and ±100 the full control effect; compound concentration not given in the record
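Homogeneous bead-based format: GST-tagged E1A captured on glutathione donor beads, His-tagged CtBP on nickel acceptor beads; compounds precede bead addition by 2 h at 37 °C.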
TRPML1 agonist – qHTS for Agonists of the Human Mucolipin Transient Receptor Potential 1 (TRPML1) | Mucolipin-1 (Homo sapiens), Q9GZU1 | TRPML1-expressing cells, Ca2+ dye fluorescence, FDSS; host cell line not named in the record; reference of the full effect not given here | activation, % (no concentration beside the values) | 0.12% of 410,000 active | AID 624414, 2012; in the data active = activation above about 50%; inconclusive = about 30% to 50%; inactive = below about 30%; further: 0% is about no effect; the text of the record puts the active cut at 80%
Target sequence (Q9GZU1 whole entry, looked up): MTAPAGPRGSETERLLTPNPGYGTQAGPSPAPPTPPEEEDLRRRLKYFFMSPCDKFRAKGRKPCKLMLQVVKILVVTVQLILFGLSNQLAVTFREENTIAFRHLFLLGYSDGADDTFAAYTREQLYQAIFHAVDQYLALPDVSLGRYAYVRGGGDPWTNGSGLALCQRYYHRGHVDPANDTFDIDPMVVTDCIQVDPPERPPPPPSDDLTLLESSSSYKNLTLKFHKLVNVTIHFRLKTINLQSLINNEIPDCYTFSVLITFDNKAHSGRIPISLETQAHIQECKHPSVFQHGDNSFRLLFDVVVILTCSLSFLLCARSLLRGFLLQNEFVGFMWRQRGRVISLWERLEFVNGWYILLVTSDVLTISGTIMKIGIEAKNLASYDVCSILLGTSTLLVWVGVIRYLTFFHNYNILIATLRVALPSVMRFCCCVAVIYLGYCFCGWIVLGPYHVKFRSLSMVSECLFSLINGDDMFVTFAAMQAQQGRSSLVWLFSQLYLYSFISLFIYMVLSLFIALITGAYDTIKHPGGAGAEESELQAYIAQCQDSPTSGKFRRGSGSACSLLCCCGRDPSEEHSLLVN
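Calcium fluorescence on an FDSS kinetic reader gave the read-out. Tet-induced TRPML1-DL cells were plated overnight, dye-loaded (Ca8 with quencher, 45-90 min, room temperature, dark), then read 110 s after compound addition, and again 110 s after 4uM final 54-4 (EC80).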
* marks the source's active call; other numbers are inactive results; ? = inconclusive; nt = not tested or not shown; & = joins results of further samples; [ ] = dose if it differs, or a comment.

mol	D2 potentiator	D2 ag	Six1-Eya2 inh	PINK1 modulator	CtBP-E1A blk	TRPML1 agonist
COc1cccc(NC(=O)CN(C)C(=O)COc2ccc3ccccc3c2)c1	-10.0	0.2	7.3	-2.3%	2.5	0.8
COc1ccc(NC(=O)c2sc3ncn(CC(=O)N4CCN(c5ccccn5)CC4)c(=O)c3c2C)cc1OC	0.2	-2.6	-10.4	-0.5%	-27.6	-0.5
CCOc1ccccc1NC(=S)N(CCN(C)C)C(C)c1ccncc1 (stereo not drawn)	-5.7	-4.5	0.0	0.6%	9.1	0.1
COc1ccc(OC)c(C(=O)COC(=O)CNC(=O)C2CCCCC2)c1	-11.4	-3.8	6.1	-3.8%	-9.6	0.5
Cc1csc(SCCn2c(N3CCCC3)nc3c2c(=O)[nH]c(=O)n3C)n1	-12.4	1.3	10.0	-0.5%	-6.5	-0.3
Cc1ccc(NC(=O)COC(=O)C2(CC(=O)NC(C)C)CCCC2)cc1C	0.3	0.3	4.1	2.5%	4.2	1.9
Nc1ncnc2c(C3OC(CO)C(O)C3O)c[nH]c12 (stereo not drawn)	-14.4	-1.1	4.9	-4.5%	0.9	-0.3
CCOc1ccc(NC(=O)c2ccc3nccnc3c2)cc1	-4.9	-4.4	-9.2	-1.7%	-21.2	0.2
COc1ccc(C(=O)/C=C/C(=O)N(CC(=O)NC2CCCCC2)Cc2ccccc2)c(O)c1	-3.5	-4.6	-1.1	-0.4%	8.3	0.7
CC(C)(C)C(=O)NC(=S)Nc1ccc(F)cc1	-6.8	1.2	4.6	1.5%	-1.8	0.7
Cc1cc(-c2ccc3ccccc3c2)n2ncnc2n1	-2.0	-5.5	-2.7	1.3%	13.1	-0.5
Cc1cc(S(=O)(=O)N2CCOCC2)ccc1OCC(=O)NCc1ccco1	1.2	-0.5	0.8	-2.8%	-3.0	0.1
NS(=O)(=O)c1ccc(CCNC(c2ccccc2)c2ccccc2)cc1	-8.5	-7.8	-4.5	0.9%	-6.7	1.0
Cc1ccc(-n2ncc3c2CC(C)(C)CC3NC(=O)CCc2ccncc2)cc1 (stereo not drawn)	8.3	7.5	3.6	2.6%	-6.7	0.3
CCn1cc(C(=O)NCCCOC(C)C)c(=O)c2cc(S(=O)(=O)N3CCOCC3)ccc21	-11.3	-8.1	-2.9	1.3%&3.5%	nt	0.1&-0.6
O=C(c1ccccc1-c1nc2ccccc2[nH]1)N1CCCCC1	-16.2	-0.7	-4.7	1.3%	-2.0	-0.2
Cc1cc(C)n2c(SCC(=O)Nc3cc(C)on3)nnc2n1	-8.2	-2.7	-4.3	-1.1%	-1.5	-0.3
Cc1ccc(-c2nc(CN(Cc3c(C)nn(C)c3C)C(C)C)c(C)o2)o1	-6.1	-6.5	-89.7*	-2.1%	-5.8	-1.3
COC(=O)CN1C(=S)N(c2ccc(Cl)cc2)C(=O)C1CC(=O)Nc1ccc(Cl)cc1 (stereo not drawn)	-6.9	-1.7	-5.5	10.9%	-2.3	1.9
CN(C)C(=O)c1ccc(NC(=O)c2cc(-c3ccco3)nc3ccccc23)cc1	-6.8	?	4.6	2.5%	0.0	-0.4
CC(/C=N/NC(=O)c1cc(C(C)(C)C)[nH]n1)=C\c1ccccc1	-1.1	-2.4	-15.2	7.2%	-2.0	0.9
CCOC(=O)c1ccc(N2C(=O)CC(N3CCC(C(=O)OCC)CC3)C2=O)cc1 (stereo not drawn)	4.8	-1.2	9.2	1.7%	-1.2	0.1
Cc1ccc(C)c(S(=O)(=O)N2CCCOC2CNC(=O)C(=O)NC2CC2)c1 (stereo not drawn)	-3.5	-0.6	0.9	0.0%	5.8	0.0
CCN(CC)c1nc2c(c(=O)n(C)c(=O)n2C)n1CC(=O)c1ccccc1	-6.9	-3.3	0.0	-1.3%	4.7	-0.3
COC(=O)c1sc(NC(=O)C2CCCCC2C(=O)O)c(C(=O)OC)c1C (stereo not drawn)	-19.9	2.0	5.6	-0.4%	0.4	-0.7
CNC(=O)c1c(NC(=O)CCS(=O)(=O)c2ccc(F)cc2)sc(C)c1C	-14.7	-5.0	10.3	0.6%	0.0	-0.4
COc1ccc(CCN(C)C(=O)c2c(C)noc2C)cc1OC	-2.2	-2.3	-5.3	0.6%	-8.4	0.5
CCN(CC)c1ccc(C2Nc3cccc4cccc(c34)N2)cc1	0.7	10.2	-11.1	-0.2%	3.8	0.1
Cc1ccc(NC(=O)CSCc2nc3c(nnn3Cc3ccc(F)cc3)c(=O)[nH]2)c(C)c1	6.3	0.7	-0.9	-0.9%	-1.3	2.5
CCOC(=O)c1cnc(Nc2ccc(OCC)cc2)nc1C	-3.5	0.6	-0.1	-2.2%	12.2	0.1
Cc1ncccc1C(=O)N1CCCC(CNC(=O)C2(c3ccc(Cl)cc3)CC2)C1 (stereo not drawn)	5.0	3.8	5.9	0.0%	nt	0.8
Cc1ccc(-c2ccc(SCC(=O)Nc3cc(C)on3)nn2)cc1	-6.3	-2.9	-1.6	3.9%	-3.1	3.8
COCCNC(=O)C(c1ccc(O)cc1)N(Cc1ccccc1)C(=O)CCC(=O)Nc1ccccn1 (stereo not drawn)	-3.9	-0.7	22.4	1.5%	0.0	0.1
O=C(Nc1ccc(F)cc1)Nc1nnc(Cc2ccccc2F)s1	-1.0	-0.3	1.1	5.6%	-1.1	-0.4
CCOc1cc(/C=N/N=C2/NC(=O)C(CC(=O)O)S2)ccc1OCc1ccc(Cl)cc1Cl (stereo not drawn)	-9.6	-3.4	-1.9	0.8%	-1.2	-0.9
COc1ccc(N=C2SC(CC(=O)Nc3ccccc3F)C(=O)N2Cc2ccco2)cc1 (stereo not drawn)	-21.7	-1.7	-12.1	2.7%	-2.8	1.8
O=C(OCC(=O)N1CCCc2ccccc21)c1ccccc1[N+](=O)[O-]	28.4	2.3	-4.9	-0.8%	-2.3	-0.8
CCc1nnc(NC(=O)CSc2nc3cc4c(cc3cc2C)OCCO4)s1	-4.7	-3.6	1.6	?	1.0	-0.1
Cc1ccc(NC(=O)Cn2cnc3c(NCc4ccccc4)ncnc32)cc1C	-3.1	-1.6	4.4	-0.4%	3.5	-0.5
Cc1ccc(NC(=S)N/N=C2\CC(C)(C)Oc3ccc(O)cc32)cc1	-4.4	-3.4	-15.2	2.7%	nt	2.0

Structures listed above printed as active in Six1-Eya2 inh.
smiles,D2 potentiator,D2 ag,Six1-Eya2 inh,PINK1 modulator,CtBP-E1A blk
Cc1ccc(-c2nc(CN(Cc3c(C)nn(C)c3C)C(C)C)c(C)o2)o1,-6.1,-6.5,-89.7*,-2.1%,-5.8

Next section
mol	D2 potentiator	D2 ag	Six1-Eya2 inh	PINK1 modulator	CtBP-E1A blk	TRPML1 agonist
CC(NS(=O)(=O)c1ccc(F)cc1)C(c1cccs1)N1CCN(C)CC1 (stereo not drawn)	-7.9	-3.2	0.0	8.5%[38.3 µM]	4.9	1.5
COc1ccc(N2CC(NC(=O)N3CCc4ccccc43)CC2=O)cc1OC (stereo not drawn)	-10.9	-2.7	-0.3	2.8%	7.1	-0.8
CCC(C)Sc1nc2c([nH]c3ccccc32)c(=O)n1C (stereo not drawn)	-1.5	-5.4	2.9	3.3%&1.1%	-1.0	-1.0&-0.3
COc1ccc(-c2cc(C(F)(F)F)n3nc(C(=O)N4CCCC4)cc3n2)cc1	-4.1	-2.2	-3.3	15.8%	-4.3	0.9
O=C(COC(=O)/C=C/c1ccc(F)cc1)NC1CCS(=O)(=O)C1 (stereo not drawn)	-2.7	0.0	-1.6	0.0%	-0.7	1.4
CCC1=NN(C(=O)Cc2ccc([N+](=O)[O-])cc2)C(O)(C(F)(F)F)C1 (stereo not drawn)	0.2	-0.2	-0.1	0.1%	0.2	4.8
COc1ccc(NC(=O)CSc2nnc(CN3CCOCC3)n2-c2ccccc2)cc1Cl	-4.9	-1.7	-3.5	2.7%[38.3 µM]	-2.2	3.2
O=C(COC(=O)CCN=C1NS(=O)(=O)c2ccccc21)NNC(=O)c1ccc(Cl)cc1	-5.7	-7.2	-5.5	-0.4%	nt	-1.0
C=C(C)CSc1nnc2n(Cc3ccccc3)c(=O)c3c4c(sc3n12)CCC4	-6.9	0.3	4.9	23.6%	3.0	2.1
N#Cc1c(NC(=O)COC(=O)C2=COCCO2)sc2c1CCCC2	-19.2	-1.4	-3.6	-0.6%	-13.7	-0.2
O=C(CSc1nnc(SCc2cccc3ccccc23)s1)Nc1ccc(C(=O)O)cc1	-0.6	-4.1	-0.5	2.7%	2.9	-0.1
COCCNC(=O)NC(=O)COC(=O)c1ccc2[nH]c3c(c2c1)CCCC3	27.3	1.8	-7.8	2.6%	-2.6	3.2
O=c1[nH][nH]c(-c2ccccc2)c1C=Nc1cccc(Cl)c1	17.8	-1.8	-8.4	-0.4%	-1.0	2.5
Cc1ccc(C(=O)N2CCN(c3ccc([N+](=O)[O-])cc3)CC2)o1	-2.1	2.0	-6.1	-1.9%	-0.3	0.8
CCCC(=O)N1CCC(Cc2ccccc2)CC1	-15.3	4.9	-12.1	-0.4%	-25.5	0.0
O=c1ccc2ccccc2c2ccccc12	-12.7	-6.9	10.7	-1.2%	-17.6	6.4
O=C1N/C(=N\N=C\c2cccnc2)SC1Cc1ccc(SC(F)F)cc1 (stereo not drawn)	10.5	-0.9	-1.1	-0.4%	7.7	-1.0

Some entries already given with just CtBP-E1A blk, PINK1 modulator and D2 potentiator:
molecule	CtBP-E1A blk	PINK1 modulator	D2 potentiator
N#Cc1c(NC(=O)COC(=O)C2=COCCO2)sc2c1CCCC2	-13.7	-0.6%	-19.2
O=C(CSc1nnc(SCc2cccc3ccccc23)s1)Nc1ccc(C(=O)O)cc1	2.9	2.7%	-0.6
